RanGTP-Imp inh – disruptors of Ran-importin-beta complex formation – biochemical, FRET, CFP-Ran, YFP-importin-beta, homogeneous, primary screen. AID 2216. inhibition, % (concentration not given with the values). cell-free CFP-Ran/YFP-importin-beta FRET ratio. 300,000 tested, 1.1% active;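 active means most replicates above 15%; inconclusive means exactly half above 15%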;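 further: 0% = DMSO wells and 100% = Ran loaded with GDP instead of GTP; wells of about 40 µL received 100 nL stock; the first replicate is given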
T cruzi inh – T. cruzi replication inhibition; T. cruzi beta-gal in NIH3T3, luminescence, 90 h; inhibition, % (no concentration beside the values); 300,000 tested, 1.4% active;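 active means mean inhibition across valid replicates above about 55%, limit read from the data; inconclusive means mean below that limit but half or more replicates reach it; inactive means mean below it, under half of replicates reach it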;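 further: signal also drops with host cell toxicity which is not excluded here; 0% = plate median of DMSO wells and 100% = zero luminescence signal; higher percent means less beta-gal luminescence so fewer parasites; stock transfer was 50 nL into about 50 µL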
LANA-H2B inh – blocks KSHV LANA binding to histone H2A/H2B | Q9QR71 | inhibition, % (concentration not given with the values) | AID 2629 | cell-free LANA-H2A/H2B peptide, fluorescence polarization | 320,000 tested, 0.6% active; in the data active means inhibition mostly above about 10%, no sharp cut-off; inactive means mostly below about 6.7%;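 further: stock transfer was 7.5 nL into about 10 µL; 0% = median of vehicle wells and 100% = median of positive control wells; one replicate is shown; the record names a cut of 25% in any replicate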
Beta cell apopt – beta cell apoptosis inhibition; protection from apoptosis, % (no concentration beside the values); AID 435005; INS-1E cytokine-induced death, ATP luminescence, 48 h; percent of positive-control rescue, neutral wells zero; 300,000 tested, 0.8% active;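 active means all replicates at 75% or more, or half of them and the mean; inconclusive means half reach 75% but not the mean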;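 further: 0% = cytokine-treated negative control wells and 100% = positive control rescue; higher means more ATP so stronger rescue from cytokine killing; wells of about 40 µL received 100 nL stock; the first replicate is given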
Beta2AR agonist – agonists of human beta-2 adrenergic receptor inducing internalization; response, % (no concentration beside the values); Am2.2-beta2AR cells, FAP receptor internalization, flow cytometry; reference of the scale not given here; 340,000 tested, 0.43% active; AID 504454; P07550;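 active means response above a set limit, near 3 SD of response in nonfluorescent compounds, cut at about 42% in these data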;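 further: stock transfer was 100 nL into about 11 µL; a reference agonist was the positive control; negative values mostly stem from fluorescent compounds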
Target sequence (P07550 whole entry, looked up): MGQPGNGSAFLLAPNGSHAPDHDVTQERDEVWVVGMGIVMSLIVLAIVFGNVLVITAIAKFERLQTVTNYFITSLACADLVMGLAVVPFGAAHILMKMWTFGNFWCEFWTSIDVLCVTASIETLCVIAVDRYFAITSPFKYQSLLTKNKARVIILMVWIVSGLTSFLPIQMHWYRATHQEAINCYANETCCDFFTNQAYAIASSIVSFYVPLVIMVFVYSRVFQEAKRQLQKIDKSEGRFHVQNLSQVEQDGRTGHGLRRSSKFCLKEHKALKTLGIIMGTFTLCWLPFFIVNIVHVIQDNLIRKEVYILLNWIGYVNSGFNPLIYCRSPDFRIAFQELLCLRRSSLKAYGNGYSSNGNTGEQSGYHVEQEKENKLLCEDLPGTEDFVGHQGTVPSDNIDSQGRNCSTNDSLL
A1 inh – inhibitors of the anti-apoptotic protein A1, read as caspase activation. MEF A1-2A-BIM cells, Caspase-Glo 3/7 luminescence, 3 h; percent of clofoctol response, vehicle zero. AID 2462. 330,000 tested, 0.066% active. caspase activation, % (test concentration not listed);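 active means over half of replicate activation scores above 10%, or exactly half above 10 with the replicate mean above 10; inconclusive means replicate mean below 10 yet half the replicates above 10; inactive means over half of replicates below 10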;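 further: wells of about 30 µL received 50 nL stock; many hits fall short of the cut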
UCH37 DUB inh – blocks the human deubiquitinase UCH37; purified proteasome/UCH37, Ub-AMC cleavage fluorescence; inhibition, % (test concentration not listed); 330,000 tested, 0.33% active; AID 588478;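 active means mean of two replicates above 20%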;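 further: 0% = compound-free wells with enzyme and 100% = wells lacking proteasome; stock transfer was 100 nL into about 20 µL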
Target sequence (Q9Y5K5 whole entry, looked up): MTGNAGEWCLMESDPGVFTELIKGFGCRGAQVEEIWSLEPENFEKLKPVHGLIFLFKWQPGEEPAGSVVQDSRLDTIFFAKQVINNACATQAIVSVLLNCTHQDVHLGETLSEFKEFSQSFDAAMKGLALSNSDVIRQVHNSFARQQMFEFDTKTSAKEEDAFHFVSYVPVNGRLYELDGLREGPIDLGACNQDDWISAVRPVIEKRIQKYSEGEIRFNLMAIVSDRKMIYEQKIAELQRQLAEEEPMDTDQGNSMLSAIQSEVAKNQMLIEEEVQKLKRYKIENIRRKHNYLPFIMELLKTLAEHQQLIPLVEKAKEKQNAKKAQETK
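Material: Human UCH37 enzyme supplied as purified proteasome complex | Schedule: 30 min compound-proteasome preincubation then 25 min substrate reaction, room temperature | Detection: AMC fluorescence from Ub-AMC cleavage, excitation 355 nm, emission 460 nm | Benchmarks: Wells without proteasome as full block, compound-free enzyme plus substrate as uninhibited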
Calb FLC – affects C. albicans growth with fluconazole. C. albicans CaCi-2 (fluconazole-resistant clinical isolate) + fluconazole, Alamar Blue growth, 48 h. growth inhibition, % (concentration not given with the values). 300,000 tested, 0.57% active. AID 1979;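 active means most replicates above 75%; inconclusive means exactly half above 75%; inactive means most below 75%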;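 further: all wells also contain fluconazole at 8 µg/ml as a sub-toxic cotreatment; 0% = median of DMSO wells and 100% = median of geldanamycin control wells; wells of about 8 µL received 7.5 nL stock; the first replicate is given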
* = called active by the depositor; ? = inconclusive; nt = no result given; & = joins results of further samples.

Compound	LANA-H2B inh	Beta2AR agonist	A1 inh	Calb FLC	RanGTP-Imp inh	UCH37 DUB inh	Beta cell apopt	T cruzi inh
CCN(CC)c1cccc(OC(=O)c2cccnc2Cl)c1	-4.4	-2	1.9	18	5.3	1.9	nt	1
CCCCC1S/C(=N/N=C/c2ccc(OC)cc2)N(Cc2ccc(OC)cc2)C1=O (stereo not given)	6.7	2	0.2	-1	?	nt	1	31
CN1CCN(CCOc2cccc(Cl)c2)CC1	1.9	-1	0.0	37	-3.1	-3.5	-4	36
C=CCn1c(SCn2nnc3ccccc3c2=O)nc2scc(-c3cccs3)c2c1=O	0.4	12	-0.3	-2	2.9	1.4	3	15
Cn1ncc(Cl)c1C(=O)Nc1ccncc1	-4.9	2	-0.1	-7	4.3	1.2	-9	-6
S=C1N(c2ccccc2)C(c2ccc(Br)cc2)N2CCCN12 (stereo not given)	-0.4	3	-0.5	-23	2.6	1.7	-1	5
C=CCn1c(=O)c2c3c(sc2n2c(Nc4ccccc4)nnc12)CCCC3	0.9	5	0.4	3	1.9	0.1	12	36
O=C(NNC(=O)C1CCN(S(=O)(=O)c2ccc(Cl)cc2)CC1)c1ccccc1O	-2.6	-3	-0.1	nt	-3.0	nt	0	-1
Cc1ccc(-c2csc(N3CCC[C@@H]3C(=O)NCCn3c(C(F)(F)F)nc4ccccc43)n2)cc1	3.7	15	0.7	0	-3.8	0.4	-2	6
CC1=CC(C)(C)N2C(=O)C3(C(C#N)=C(N)Oc4cc(C)oc(=O)c43)c3cccc1c32 (stereo not given)	3.5	-4	0.5	-5	-2.7	0.5	-12	22
Cc1cccc(C)c1OCC(=O)OC/C(O)=C(\C#N)c1nc2ccccc2[nH]1	nt	4	0.4	6	26*	0.7	0	-13
CN(C)/C=C(/C(=O)c1ccccc1)S(=O)(=O)c1ccc(Cl)cc1	-0.3	2	1.1	-23	0.8	2.4	2	-10
CCOc1ccc(/C=N/NC(=O)CSc2n[nH]c(=O)[nH]c2=O)cc1OC	-4.1	-2	0.7	-1	-3.8	nt	-8	-10
CCc1ccc(S(=O)(=O)NC(=S)NC2CCCCC2)cc1	4.9	7	-0.4	-29	-1.6	0.2	-6	-7
CCCC(=O)Nc1cc(C(=O)O)ccc1Sc1ccc(C)cc1	-0.5	0	-0.1	-3	1.0	1.2	-10	-7
CCCOc1c(Cl)cc(/C=N/O)cc1OCC	-3.0	5	0.1	31	2.6	nt	-5	14
Cc1ccc(/C=C2/SC(=S)N(C3CCCCC3)C2=O)o1	-0.4	2	1.9	-11	1.6	nt	-3	-25
COc1ccc(N2CCN(Cc3nc4c(c(=O)[nH]c(=O)n4C)n3CCCc3ccccc3)CC2)cc1	-0.7	-3	0.0	12	-0.2	2.4	-2	16
COc1ccccc1NC(=O)CCc1nnc2ccc(N3CCC4(CC3)OCCO4)nn12	-1.3	2	0.5	nt	2.4	0.6	2	-5
CCS(=O)(=O)N1CCC(C(=O)NCCCN2CCCC2)CC1	3.5	-5	0.6	6	-3.2	3.7	-1	-15
CCC(C)NC(=O)c1cc2c(=O)[nH]c3ccc(C)cc3c2s1 (stereo not given)	1.1	-15	-1.0	16	-0.2	-116	-1	-6
COc1cc(NC(=S)N2CCN(C/C=C/c3ccccc3)CC2)cc(OC)c1	1.3	16	-0.4	-14	2.1	1.2	nt	-10
Cc1ccc(NC(=O)CSCC#N)cc1Cl	2.1	6	0.7	-5	-1.4	0.7	-12	-18
COc1cccc(NC(=O)c2sc(NC(=O)c3ccncc3)nc2C)c1	-9.2	-1	-4.9	-5	-2.7	11	9	5
COc1ccc(-n2c3c(c(=O)[nH]c2=O)C(NC(=O)c2ccncc2)(C(F)(F)F)C(=O)N3)cc1 (stereo not given)	0.1	-4	0.3	5	2.4	-0.7	-12	-9
Cc1cccc(CSc2nnc(-c3ccccn3)n2N)c1	-0.1	-4	-1.8	4	1.0	-2.5	-6	-1
Cc1ccc(NC(=O)COC(=O)c2cccc(C)c2[N+](=O)[O-])cc1S(=O)(=O)N1CCCCC1	-0.7	2	-0.4	nt	nt	2.4	0	nt
Cc1ccc(C(=O)NNC(=O)c2ccc(S(=O)(=O)N3CCOCC3)cc2)cc1	19	-4	1.0	-2	-0.3	4.0	-2	-19
COc1ccc(NS(=O)(=O)c2cccc(C(=O)NCC(c3ccco3)N(C)C)c2)cc1 (stereo not given)	2.7	0	-0.5	-5	0.7	-0.4	-7	-2
C=C1CCN(c2ccc(C(=O)NCc3ccc(OC)cc3)cc2[N+](=O)[O-])CC1	-0.9	-4	1.2	11	-5.7	3.3	3	37
C/C(N)=C(/C#N)C(=O)COC(=O)c1cc(C)n(-c2ccc(F)cc2)c1C	-0.4	0&2	0.1	0	2.6	4.6&0.4	5	-3
Cc1cccc2c(SCC(N)=O)nc(-c3ccccc3)nc12	5.4	0	-0.2	4	-1.2	0.0	nt	1
CC(CCOC1=NS(=O)(=O)c2ccccc21)NC(=O)C(=O)Nc1ccccc1 (stereo not given)	0.4	1	1.0	-3	-2.3	-1.1	1	-11
Nc1nnc(SCC(=O)NC2CCCc3ccccc32)s1 (stereo not given)	5.5	0	0.7	6	-0.5	5.9	-1	-16
CS(=O)(=O)N1CCC(NC(=O)Cc2ccccc2)CC1	-1.3	3	0.2	-7	2.9	0.2	1	-9
Clc1nc2ccccc2cc1/C=N/Nc1nc2ccccc2[nH]1	-176	-3	-4.3	42	?	nt	37	-7
Cc1ccc(-c2nc3ccccc3[nH]2)cc1NC(=O)c1sc2ccccc2c1Cl	-1.7	-4	0.3	8	0.8	-10	31	11
CCC(C)NC(=O)C1CCC(CNS(=O)(=O)c2ccc3c(c2)CC(C)N3C(C)=O)CC1 (stereo not given)	1.9	0	1.2	?	2.5	2.5	1	-13
Cc1cc(C)c(NC(=O)CNC(=O)Cc2ccc(S(=O)(=O)N3CCOCC3)s2)c(C)c1	-4.5	2	1.0	nt	nt	4.3	1	nt
CCC1(CC)Cc2ccccc2-c2nc(CN3CCOCC3)[nH]c(=O)c21	-1.2	-2	0.2	-4	-3.2	2.3	5	6
O=C(Nc1cccc2c1C(=O)NC2=O)c1cccc(N2C(=O)CCC2=O)c1	1.6	7	0.3	-12	0.1	-122	0	-6
Cc1cccc2cc(C#N)c(SCC(=O)Nc3ccccc3N3CCOCC3)nc12	0.8	17	-0.7	4	3.1	-0.8	0	-5
CCc1ccc2[nH]c(=O)c(CN(CCN(C)C)C(=O)Nc3ccccc3)cc2c1	4.6	6	0.3	0	5.4	-6.3	0	21
CCN1CCN(C(=O)CN(CC)S(=O)(=O)c2ccc(F)cc2)CC1	3.4	0	1.2	1	1.5	2.7	-5	7
Cc1cc(C2(c3ccc(O)c(C)c3)OC(=O)c3ccccc32)ccc1O	-3.3	-2	-0.2	3	?	nt	6	-15
CCCN1C(=O)/C(=c2\sc3nc(=O)c(Cc4ccc(C)cc4)nn3c2=O)c2ccccc21	-0.7	5	0.1	-1	3.3	nt	nt	-2
Cc1noc(C)c1S(=O)(=O)Nc1cccc(CO)c1	-0.6	-4	1.1	6	-1.9	-0.1	-4	5
C=CCOn1c(=O)c(C)[n+]([O-])c2ccccc21	-5.6	-5	-0.7	4	0.7	-12	1	0
Cc1ccc(Nc2nc(-c3ccncc3)cs2)cc1	nt	13	nt	-3	2.8	2.9	nt	70*
CC(C)c1ccc2c(c1)CCC1C(C)(CN)CCCC21C (stereo not given)	2.2	43*	1.0	87*	-2.8	8.6	63	9
O=C(CSc1nnc(CNC(=O)c2ccco2)o1)Nc1ccc(F)cc1	-0.4	2	0.8	-3	-1.7	3.4	-4	8
COc1ccc(N(C)C(=O)c2cn(C)c(=O)c3cc(OC)c(OC)cc23)cc1	-1.8	0	-1.9	4	-1.9	1.5	0	-21
CC(=NCCCn1ccnc1)c1c(-c2ccccc2)[nH]n(-c2nc3ccccc3s2)c1=O	-3.5	5	0.1	19	0.0	2.4	7	21
O=C(CCNC(=O)N1CCn2c1nc1ccccc12)NCc1ccccc1Cl	-1.1	-9	-0.6	-4	6.6	1.9	-4	8
CCCn1c(NC(=O)c2ccccc2Br)nc2ccccc21	1.3	-13	0.3	64	0.6	0.0	25	28
CCC(=O)NC(=S)Nc1ccc(NC(=O)COc2ccccc2)cc1	2.7	-4	-0.8	2	2.6	2.9	-2	-7
CC(C)(C)OC(=O)N1CCC[C@H]1c1nnc(SCc2ccc(Cl)cc2Cl)o1	3.2	-3	-0.1	-9	0.3	3.9	-5	27
Cc1ccsc1C(=O)NCc1ccccc1Cl	0.5	3	-0.4	-8	1.2	2.8	-4	-12
Cn1c(=O)c2c(ncn2CC(=O)N(Cc2ccccc2)c2ccccn2)n(C)c1=O	-0.3	-3	-1.8	-3	-0.8	-0.2	1	-2
O=C(Cn1cnc2c(OCc3ccccc3)ncnc21)NCC1CCCO1 (stereo not given)	2.9	-15	0.7	nt	nt	-0.2	-9	nt
Cc1ccccc1C(=O)Nc1ccc(C(=O)N/N=C/c2ccc(O)cc2)cc1	-5.9	11	1.2	4	1.1	nt	-1	-10
CCOCCCNC(=S)N1CCCC(c2nc3ccc(C)cc3[nH]2)C1 (stereo not given)	-1.2	5	0.5	23	2.7	1.9	6	-8
Cc1cc(C)n(CC(=O)NC2CCCc3c2cnn3-c2ccccc2F)n1 (stereo not given)	-4.2	-3	0.2	?	5.8	2.7	1	-18

Screening results: PubChem, several laboratories
